Env fusion inh = HIV envelope-mediated fusion inhibition; HeLa-JRFL Env/CEM21 cell fusion, luciferase; inhibition, % at 12.3 µM; 1.1% of 360,000 active;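 active = mean replicate inhibition score of at least 50 and every replicate individually at or above 50; inconclusive = only one of the two criteria met; inactive = mean below 50 and not all replicates reaching 50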;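 note: 0% = plate neutral controls and 100% = maraviroc near 300 nM; one replicate is shown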
MT1-MMP act inh = inhibitors of human MT1-MMP activation | GFP/RFP ratio change, % at 20 µM | AID 651647 | P50281 | 0.061% of 360,000 active | HT1080 RFP-PRO-GFP cells, GFP/RFP ratio fluorescence, overnight; percent of plate control window, DMSO zero;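 active = GFP/RFP ratio change of at least 30% with cell ATP level not reduced by more than half and red fluorescence within 50% of control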; note: strong numbers were not always called active
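Test system: HT1080 cells expressing an RFP-PRO-GFP fluorescent reporter construct / Compound dosing: single-point 20 µM compound, 1% DMSO / Schedule: cells overnight before dosing, compound overnight, 37 °C, 5% CO2 / Evaluation: GFP/RFP fluorescence ratio / Control set: DMSO and RFP-L50D-GFP cell wells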
MT1-MMP act inh RFP = second read-out of MT1-MMP act inh, no call of its own (marks repeat the call); RFP signal change, %; measured here: RFP expression control read;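 0 = vehicle wells; hits needed this value within 50% of zero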
Active calls of the source: *. The list is partial (hit frequency here may not be typical).

Results for CCOC(=O)C1CCCN(C(=O)c2ccc3c(c2)C(C)(C)CCC3(C)C)CC1 (configuration not stated) ?
Env fusion inh: 60*; MT1-MMP act inh: -6; MT1-MMP act inh RFP: -21

Results for O=C(NNc1ccccc1)Nc1cc(Cl)ccc1Cl ?
Env fusion inh: -12; MT1-MMP act inh: 1; MT1-MMP act inh RFP: 1

Results for C[C@H](CO)N1C[C@H](C)[C@@H](CN(C)S(=O)(=O)c2ccccc2C#N)OCc2cn(nn2)CCCC1=O ?
Env fusion inh: -37; MT1-MMP act inh: 1; MT1-MMP act inh RFP: 4

Results for Nc1c(-c2ccccc2)nc2ncccn12 ?
Env fusion inh: -2; MT1-MMP act inh: 0; MT1-MMP act inh RFP: 7

Results for COc1ccc(CCC(=O)N2c3ccccc3N=C(c3ccc(C(F)(F)F)cc3)C2C(=O)NC(C)(C)C)cc1 (configuration not stated) ?
Env fusion inh: 8; MT1-MMP act inh: -23; MT1-MMP act inh RFP: -29

What do the screens show for `Cc1cccc(OC(C)C(=O)OCC(=O)N2CCN(c3ccccc3)CC2)c1` (configuration not stated)?
Env fusion inh: -58; MT1-MMP act inh: -1; MT1-MMP act inh RFP: 3

How did CCCCCNC(=O)C1C(=O)Nc2ccccc2C(=O)N1c1ccc(OC)cc1 (configuration not stated) do in these assays?
Env fusion inh: -1; MT1-MMP act inh: -5; MT1-MMP act inh RFP: -2

Results for O=C(NCC(F)(F)F)c1cc2c(c(-c3cccc(-c4ccccc4F)c3)n1)[C@H](CCO)N(C(=O)CC1CC1)C2 ?
Env fusion inh: 37; MT1-MMP act inh: -8; MT1-MMP act inh RFP: -13

What do the screens show for `COC(=O)C1=CN(c2ccc(N3CCOCC3)cc2)C(N)=C(C#N)C1c1cccc(OC)c1OC` (configuration not stated)?
Env fusion inh: 10; MT1-MMP act inh: 5; MT1-MMP act inh RFP: 9

What do the screens show for `Brc1cccc(-c2nc3c4ccccc4ccn3c2CC2CCCCC2)c1`?
Env fusion inh: 20; MT1-MMP act inh: -2; MT1-MMP act inh RFP: -1

What do the screens show for `NC(=O)C1(Nc2ccc(-c3ccccc3)cc2)CCCC1`?
Env fusion inh: 4; MT1-MMP act inh: 2; MT1-MMP act inh RFP: 3

Results for N#CCC(=O)Nc1ccc(C(=O)OCC(=O)Nc2ccc3ccccc3c2)cc1 ?
Env fusion inh: -9; MT1-MMP act inh: 2; MT1-MMP act inh RFP: 5

Results for O=C(NC1CCCCC1)C(c1ccc(C(F)(F)F)cc1)n1c(=O)c(-c2ccccc2)nc2ccccc21 (configuration not stated) ?
Env fusion inh: -1; MT1-MMP act inh: -29; MT1-MMP act inh RFP: -28

What do the screens show for `Cc1ccc(NC(=O)CN2C(=O)NC3(CCCCC3)C2=O)cc1S(=O)(=O)N1CCOCC1`?
Env fusion inh: -31; MT1-MMP act inh: 2; MT1-MMP act inh RFP: 3

What do the screens show for `Nc1nc2ccc(Cl)cc2cc1C(=O)NCCc1ccc(O)cc1`?
Env fusion inh: 7; MT1-MMP act inh: 0; MT1-MMP act inh RFP: -7

What do the screens show for `CC(C)(C)NC(=O)C(c1ccc(C#N)cc1)n1c(=O)c(-c2ccccc2)nc2ccccc21` (configuration not stated)?
Env fusion inh: 2; MT1-MMP act inh: -10; MT1-MMP act inh RFP: -10

Results for C=C(CN(C)C)C(=O)c1cc(C)ccc1C ?
Env fusion inh: -31; MT1-MMP act inh: 8; MT1-MMP act inh RFP: -3

Results for COCCCn1cc(CN2CC(N3CCCC3)CS2(=O)=O)nn1 (configuration not stated) ?
Env fusion inh: 18; MT1-MMP act inh: 3; MT1-MMP act inh RFP: 7

Results for OC(c1ccccc1)(c1ccccc1)C1CCN(CCCOc2cccc(OC(F)(F)F)c2)CC1 ?
Env fusion inh: 29; MT1-MMP act inh: -8; MT1-MMP act inh RFP: -10

How did O=C(c1ccc(Cl)c(Cl)c1)N1CCC(=O)N([C@H](COCc2ccccc2)Cc2ccccc2)CC1 do in these assays?
Env fusion inh: 64*; MT1-MMP act inh: -6; MT1-MMP act inh RFP: -9

Results for S=c1[nH]c2ccccc2n1CCc1ccncc1 ?
Env fusion inh: 13; MT1-MMP act inh: -17; MT1-MMP act inh RFP: -7

What do the screens show for `O=S1(=O)N[C@@H](Cc2ccccc2)COc2cc(N3CCC[C@H]3CO)ccc21`?
Env fusion inh: -14; MT1-MMP act inh: 1; MT1-MMP act inh RFP: -15

Results for Nc1sc(Cc2ccccc2)cc1C(=O)NC1CCCCC1 ?
Env fusion inh: 3; MT1-MMP act inh: -7; MT1-MMP act inh RFP: -1

Results for CC(C)(C)NC(=O)C1c2ccccc2OCC(=O)N1C1CC1 (configuration not stated) ?
Env fusion inh: -15; MT1-MMP act inh: 0; MT1-MMP act inh RFP: 2

Results for CN1CCN(C2=C(Cl)C(=O)c3ccccc3C2=O)CC1 ?
Env fusion inh: 6; MT1-MMP act inh: 6; MT1-MMP act inh RFP: 1

Results for CC1OC(C(C)(C)C)CC2=C1C(=O)OC(C)(C)O2 (configuration not stated) ?
Env fusion inh: -4; MT1-MMP act inh: 1; MT1-MMP act inh RFP: 5

How did O=C(NC1CCCCC1)C(c1ccccc1F)n1c(=O)c(-c2cc3ccccc3[nH]2)nc2ccccc21 (configuration not stated) do in these assays?
Env fusion inh: 14; MT1-MMP act inh: -27; MT1-MMP act inh RFP: -23

How did O=C1NC[C@H](Cc2ccc(O)cc2)N(C[C@@H]2CCCN2C[C@H](Cc2ccccc2)N2C[C@H](Cc3ccccc3)N(CCc3ccccc3)C(=O)C2=O)C1=O do in these assays?
Env fusion inh: -57; MT1-MMP act inh: -2; MT1-MMP act inh RFP: 2

What do the screens show for `O=c1[nH][nH]c2c1[C@H](c1ccc(F)cc1)O[C@H](CCc1ccccc1)C2`?
Env fusion inh: 14; MT1-MMP act inh: 6; MT1-MMP act inh RFP: 5

How did CCCN(CC(=O)Nc1ccccc1C)C(=O)c1cc2ccccc2oc1=O do in these assays?
Env fusion inh: 12; MT1-MMP act inh: 3; MT1-MMP act inh RFP: -1

Results for Cc1cccc(C)c1NC(=O)C(C1CC1)n1c(-c2ccc(C(F)(F)F)cc2)nc2ccccc21 (configuration not stated) ?
Env fusion inh: -146; MT1-MMP act inh: -7; MT1-MMP act inh RFP: -9

Results for CCCC[C@@H]1Cc2[nH][nH]c(=O)c2[C@H](c2ccc(C(C)C)cc2)O1 ?
Env fusion inh: 29; MT1-MMP act inh: 3; MT1-MMP act inh RFP: -3

What do the screens show for `N#CC(=C(O)COC(=O)CCCNC(=O)c1ccc(Cl)cc1)c1nc2ccccc2[nH]1`?
Env fusion inh: -26; MT1-MMP act inh: -5; MT1-MMP act inh RFP: 5

What do the screens show for `O=C1O[C@@H](c2ccccc2)C[C@@H](O)C(=O)CCc2ccccc21`?
Env fusion inh: 13; MT1-MMP act inh: 5; MT1-MMP act inh RFP: 6

How did CCOC(=O)[C@]12CCC=C1N(Cc1ccco1)C(=O)[C@H](CC(=O)NCC1CCCCC1)C2 do in these assays?
Env fusion inh: 45; MT1-MMP act inh: 0; MT1-MMP act inh RFP: -1

What do the screens show for `CC1=C(C(=O)N2CCOCC2)CC(CC(=O)NCc2ccco2)C(=O)N1Cc1ccccc1` (configuration not stated)?
Env fusion inh: 8; MT1-MMP act inh: 1; MT1-MMP act inh RFP: 8

How did CCCCCCn1cc(CN2CC(N3CCN(Cc4ccccc4F)CC3)CS2(=O)=O)nn1 (configuration not stated) do in these assays?
Env fusion inh: -23; MT1-MMP act inh: 4; MT1-MMP act inh RFP: -7

How did O=C(O)c1ccc(NC2(C(=O)O)CCCC2)cc1 do in these assays?
Env fusion inh: -5; MT1-MMP act inh: 5; MT1-MMP act inh RFP: 5

What do the screens show for `Cc1cccc(C)c1-n1nnnc1C(c1ccnc2ccccc12)N(Cc1ccccc1)Cc1ccccc1` (configuration not stated)?
Env fusion inh: 90*; MT1-MMP act inh: -3; MT1-MMP act inh RFP: -32

What do the screens show for `CCCCn1nnnc1C(c1ccccc1)N1CCCN(Cc2ccc(F)cc2)CC1` (configuration not stated)?
Env fusion inh: -62; MT1-MMP act inh: 6; MT1-MMP act inh RFP: 2

For reference, some entries already given:
How did O=C1NC[C@H](Cc2ccc(O)cc2)N(C[C@@H]2CCCN2C[C@H](Cc2ccccc2)N2C[C@H](Cc3ccccc3)N(CCc3ccccc3)C(=O)C2=O)C1=O do in these assays?
Env fusion inh: -57; MT1-MMP act inh: -2; MT1-MMP act inh RFP: 2

What do the screens show for `O=c1[nH][nH]c2c1[C@H](c1ccc(F)cc1)O[C@H](CCc1ccccc1)C2`?
Env fusion inh: 14; MT1-MMP act inh: 6; MT1-MMP act inh RFP: 5

How did CCCN(CC(=O)Nc1ccccc1C)C(=O)c1cc2ccccc2oc1=O do in these assays?
Env fusion inh: 12; MT1-MMP act inh: 3; MT1-MMP act inh RFP: -1

Results for Cc1cccc(C)c1NC(=O)C(C1CC1)n1c(-c2ccc(C(F)(F)F)cc2)nc2ccccc21 (configuration not stated) ?
Env fusion inh: -146; MT1-MMP act inh: -7; MT1-MMP act inh RFP: -9

Results for CCCC[C@@H]1Cc2[nH][nH]c(=O)c2[C@H](c2ccc(C(C)C)cc2)O1 ?
Env fusion inh: 29; MT1-MMP act inh: 3; MT1-MMP act inh RFP: -3

What do the screens show for `N#CC(=C(O)COC(=O)CCCNC(=O)c1ccc(Cl)cc1)c1nc2ccccc2[nH]1`?
Env fusion inh: -26; MT1-MMP act inh: -5; MT1-MMP act inh RFP: 5

Further compounds.
Results for COc1cc(C2C3=C(COC3=O)OC(C)(C)Oc3cc4c(cc32)OCO4)cc(OC)c1OC (configuration not stated) ?
Env fusion inh: 30; MT1-MMP act inh: 24; MT1-MMP act inh RFP: 5

Results for CCC(C(=O)NCc1ccccc1)n1c(CSCCOc2ccccc2)nc2ccccc21 (configuration not stated) ?
Env fusion inh: inconclusive; MT1-MMP act inh: 5; MT1-MMP act inh RFP: -5

Results for CN(Cc1ccc(Cl)cc1)C(c1cc2ccccc2o1)c1nnnn1C(C)(C)C (configuration not stated) ?
Env fusion inh: 11; MT1-MMP act inh: -6; MT1-MMP act inh RFP: -22

Results for CCOc1ccc(CCN2C(=O)C(=O)N([C@@H](CC(C)C)CN3CCC[C@H]3CN3C(=O)C(=O)NC[C@@H]3Cc3ccc(O)cc3)C[C@@H]2CC(C)C)cc1 ?
Env fusion inh: -25; MT1-MMP act inh: 1; MT1-MMP act inh RFP: 6

How did Nc1[nH]c(C(=O)c2ccccc2)c(-c2ccc(Cl)cc2)c1C(=O)NCCc1c[nH]c2ccccc12 do in these assays?
Env fusion inh: -313; MT1-MMP act inh: 0; MT1-MMP act inh RFP: 0

Results for CCOC(=O)[C@]12CCC=C1N(CCC1=CCCCC1)C(=O)[C@H](CC(=O)NCCC(C)C)C2 ?
Env fusion inh: 0; MT1-MMP act inh: 2; MT1-MMP act inh RFP: 4

What do the screens show for `CC1=CC2C(C(O)CC3(C)C2CC(C)C32OCOC23COCO3)C2(C)C/C(=C\O)C(=O)C=C12` (configuration not stated)?
Env fusion inh: 113*; MT1-MMP act inh: -26; MT1-MMP act inh RFP: -27

What do the screens show for `O=C(NCc1ccccc1Cl)[C@H]1CCCN1C(=O)[C@H]1CCCN1C(=O)c1cccs1`?
Env fusion inh: -56; MT1-MMP act inh: 1; MT1-MMP act inh RFP: -1

What do the screens show for `COc1cc(C)c(NC(=O)c2cccc(S(=O)(=O)N3CCCC3)c2)cc1OC`?
Env fusion inh: -2; MT1-MMP act inh: -2; MT1-MMP act inh RFP: 0

How did CC(C)c1ccc(CN2CCC2(C)C(=O)Nc2ccc3c(c2)OCO3)cc1 (configuration not stated) do in these assays?
Env fusion inh: 16; MT1-MMP act inh: -1; MT1-MMP act inh RFP: -8

How did CC1(c2nnnn2Cc2ccccc2)CCC(=O)N1CC(F)(F)F (configuration not stated) do in these assays?
Env fusion inh: 2; MT1-MMP act inh: 2; MT1-MMP act inh RFP: -1

Results for CC(C(=O)NC1CCCC1)n1c(-c2ccncc2)nc2ccccc21 (configuration not stated) ?
Env fusion inh: -12; MT1-MMP act inh: 7; MT1-MMP act inh RFP: 6

What do the screens show for `COC(=O)[C@@]12C[C@@H](CC(=O)NCc3cccs3)C(=O)N(CCc3ccc(OC)c(OC)c3)C1=CCC(C)(C)C2`?
Env fusion inh: inconclusive; MT1-MMP act inh: 5; MT1-MMP act inh RFP: 3

What do the screens show for `O=C1C2C3C=CC(O3)C2C(=O)N1Cc1ccncc1` (configuration not stated)?
Env fusion inh: -22; MT1-MMP act inh: 0; MT1-MMP act inh RFP: 3

How did NS(=O)(=O)c1ccc(N2CCOCC2)c(C(=O)NCc2ccc3c(c2)OCO3)c1 do in these assays?
Env fusion inh: 3; MT1-MMP act inh: -3; MT1-MMP act inh RFP: 1

What do the screens show for `COc1ccc(C2C=CC(=O)CC2)c(OC)c1` (configuration not stated)?
Env fusion inh: -27; MT1-MMP act inh: -3; MT1-MMP act inh RFP: -3

How did CC(C)C(C(=O)NCc1ccccc1)N1CCN(C(=O)C2CCCO2)CC1 (configuration not stated) do in these assays?
Env fusion inh: 0; MT1-MMP act inh: 1; MT1-MMP act inh RFP: 6

What do the screens show for `CCCCCCCCCCCCCCCC(=O)OCC1OC(n2ccc(N)nc2=O)C(O)C1O` (configuration not stated)?
Env fusion inh: 75*; MT1-MMP act inh: -13; MT1-MMP act inh RFP: 0

What do the screens show for `Cc1cccc(C)c1NC(=O)C1(C)CN(S(C)(=O)=O)CC(=O)N1Cc1ccco1` (configuration not stated)?
Env fusion inh: -41; MT1-MMP act inh: 0; MT1-MMP act inh RFP: 1

Bioassay records deposited in PubChem BioAssay by several laboratories.
